From PubChem
Rango complex inh: qHTS Assay for Inhibitors of Rango (Ran-regulated importin-beta cargo) - Importin beta complex formation. Rango CFP/YFP FRET sensor + importin beta, 45 min. AID 540263, 2011. actives 0.031% (n = 340,000). Potency, µM (titrated, usually from 92.2 µM), for inactives: top-dose inhibition of complex formation; active = rising FRET ratio curve, often small or poorly fitted; inconclusive = mostly compound fluorescence or quenching in the first reads; inactive = flat curves in all reads;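 also: potency is read from the fitted curve at half-maximal effect; 0% = DMSO wells and 100% = buffer wells lacking importin beta; nearly all actives have a fitted effect of over 15% in size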
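FRET biosensor (snurportin 1 IBB flanked by EYFP and cerulean), 50 nM, with compound 5 min, then 0.125 microM importin beta in PBS, 1 mM DTT, 0.02% Tween-20, 0.1% BSA. CFP/YFP ratio read after 45 min at room temperature; pre-read flags interference.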
Rango dissoc inh: qHTS Assay for Inhibitors of RanGTP induced Rango (Ran-regulated importin-beta cargo) - Importin beta complex dissociation; Snurportin-1 (Homo sapiens) + GTP-binding nuclear protein Ran (Homo sapiens) + Importin …; Potency, µM (highest dose often 46.1 µM), without a hit: at the highest dose activity change, negative = inhibition; Biochemical FRET Rango-importin beta, RanGTP-induced dissociation; actives 0.071% (n = 340,000); AID 540253, 2011; active means falling FRET ratio curve, often poorly fitted, with flat reads before Ran was added; inconclusive means other falling curves, or compound fluorescence or quenching; inactive means flat or rising ratio curve;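 also: potency is read from the fitted curve at half-maximal effect; % of control where 0% means no effect; nearly all actives have a fitted effect of over 45% in size; -100% = wells without RanGTP and RCC1; the record marks most hits as doubtful in a second field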
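Compounds sat 5 min at room temperature with 0.1 uM Rango biosensor plus 0.25 uM importin beta, then FRET pre-read. RanGTP-RCC1 (0.6 uM Ran, 2mM GTP, 0.2 uM RCC1) added for 45 min, and the CFP/YFP post-read measured blocked complex dissociation.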
miR-21 FLuc: qHTS Assay for Modulators of miRNAs and/orActivators of miR-21; 340,000 tested, under 10 active; HeLa miR-21 FLuc reporter, luciferase, 48 h; Potency, µM (series often up to 38.3 µM), for the others: top-dose reporter change, positive = more light; active = well fitted rising curve with a large enough effect; inconclusive = small, poorly fitted or top-dose-only effect; inactive = no such curve, though single readings can be large or run the other way;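 also: % of control where 0% means no effect; miR-21 action dims this reporter so a rising signal means less miR-21 action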
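Luminescence from a firefly luciferase reporter carrying a miR-21 binding site downstream, stably expressed under a CMV promoter in HeLa cells that make miR-21 endogenously, reports miRNA modulation after 48 h compound exposure up to approximately 40uM final.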
GLA inh pH 4.5: qHTS Assay for Inhibitors of Human alpha-Galactosidase at pH 4.5. Alpha-galactosidase A (Homo sapiens), P06280. purified enzyme, 4-MU-alpha-Gal fluorescence, pH 4.5. activity change, negative = inhibition, % at 105 µM. 230,000 tested, under 10 active. AID 1467, 2008; inconclusive = small, poorly fitted or top-dose-only inhibition, or a rising curve; inactive = flat fitted curve, though single readings scatter; no compound was filed as active;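 also: 0% = full activity with enzyme and -100% = basal without enzyme; dose as in the result columns while the protocol names 77 µM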
Target sequence (P06280 whole entry, looked up): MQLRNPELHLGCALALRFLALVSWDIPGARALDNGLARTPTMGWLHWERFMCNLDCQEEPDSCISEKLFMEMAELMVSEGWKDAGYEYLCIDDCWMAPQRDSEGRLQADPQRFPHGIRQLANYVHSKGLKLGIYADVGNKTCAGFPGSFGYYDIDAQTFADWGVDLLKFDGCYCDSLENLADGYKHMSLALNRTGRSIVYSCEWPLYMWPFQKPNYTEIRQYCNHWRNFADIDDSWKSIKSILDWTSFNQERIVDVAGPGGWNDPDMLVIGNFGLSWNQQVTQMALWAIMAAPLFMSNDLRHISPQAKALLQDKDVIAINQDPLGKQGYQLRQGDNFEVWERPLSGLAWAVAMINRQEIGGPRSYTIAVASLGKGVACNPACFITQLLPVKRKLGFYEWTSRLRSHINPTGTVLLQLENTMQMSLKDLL
The depositor's hits bear a star; u = inconclusive; x = no result given; & = joins results of further samples. A portion of the library, so the mix of outcomes need not match the whole.

SMILES | Rango complex inh | Rango dissoc inh | miR-21 FLuc | GLA inh pH 4.5
COc1ccc(NC(=O)CSc2nnc(C3CC3)n2-c2ccccc2)cc1 | 0.3% | 6% | 0% | -2
CC(=O)Nc1c(Cl)c(Cl)c2c(c1Cl)Cc1cc(Cl)ccc1-2 | -0.9% | 11% | x | x
COc1ccc(CC(=O)Nc2ccccc2Oc2ccccc2)cc1 | x | x | -2% | -19
Cc1ccccc1C(=O)c1cccn1CC(=O)NCc1ccc(F)cc1 | -0.9% | -13% | -21% | x
CCCc1nc2c(C)ccc(C)c2c(N)c1CC | 3.2% | -6% | 8% | 0
O=C(CSc1nnc(-c2cnccn2)n1Cc1ccco1)c1ccc(Cl)cc1 | -3.5% | -15% | -2% | -14
CCc1c(C)sc(NC(=O)CN2CCN(C(=O)c3ccco3)CC2)c1C(=O)OC | -0.6% | 3% | 15% | x
COc1cc(C(=O)NNC(=O)/C=C/c2ccco2)cc(OC)c1OC | -0.8% | -6% | x | x
COc1ccc(-n2nnnc2SCC(=O)NC2CCCC2)cc1OC | -3.9% | 2% | 5% | x
CCOc1ccccc1NC(=S)N1CCN(c2ccc(OC)cc2)CC1 | 2.6% | 0% | -2% | x
CC1CC=C2C(C#N)=C(N)C(C#N)(C#N)C(c3cccs3)C2C1 (stereo unspecified) | u | u | 0% | -7
O=C(CN1CCOCC1)Nc1c(C(=O)C2CC2)oc2ccccc12 | -1.7% | -4% | -22% | 2
O=C(Nc1ccc([N+](=O)[O-])cc1)c1nc[nH]c1C(=O)NC1CCCCC1 | 0.1% | 31% | -1% | -4
Cc1ccc(S(=O)(=O)N(C)c2ccc(OCC(=O)N3CCCC(C(F)(F)F)C3)cc2)cc1 (stereo unspecified) | -1.9% | 5% | x | x
Cc1cc(C)c(OCC(O)CNC(C)(C)C)c(C)c1 (stereo unspecified) | 2.3% | -9% | -2% | -4

Six entries from above, sorted by heavy-atom count, rising.
SMILES | Rango complex inh | Rango dissoc inh | miR-21 FLuc | GLA inh pH 4.5
CCCc1nc2c(C)ccc(C)c2c(N)c1CC | 3.2% | -6% | 8% | 0
CC(=O)Nc1c(Cl)c(Cl)c2c(c1Cl)Cc1cc(Cl)ccc1-2 | -0.9% | 11% | x | x
COc1ccc(CC(=O)Nc2ccccc2Oc2ccccc2)cc1 | x | x | -2% | -19
CCOc1ccccc1NC(=S)N1CCN(c2ccc(OC)cc2)CC1 | 2.6% | 0% | -2% | x
COc1ccc(NC(=O)CSc2nnc(C3CC3)n2-c2ccccc2)cc1 | 0.3% | 6% | 0% | -2
O=C(CSc1nnc(-c2cnccn2)n1Cc1ccco1)c1ccc(Cl)cc1 | -3.5% | -15% | -2% | -14

Other entries follow.
SMILES | Rango complex inh | Rango dissoc inh | miR-21 FLuc | GLA inh pH 4.5
CC1CC(C)CN(C(=O)CSC2=Nc3ccccc3C3=NC(Cc4c[nH]c5ccccc45)C(=O)N23)C1 (stereo unspecified) | 2.0% | 1% | 14% | -14
CCOC(=O)c1ccc(S(=O)(=O)n2c(CN3CCCCC3)nc3ccccc32)cc1 | 0.3% | -2% | -8% | -5
CC(=O)N(NC(N)=O)C(C)CC(=O)C1C(C)C=CCC1(C)C (stereo unspecified) | 1.4% | 8% | -1% | -3
COc1cc(NC(=O)c2c(F)cccc2F)c(Cl)cc1Cl | 4.7% | -15% | -16% | -9
C=C(C)c1cccc(C(C)(C)NC(=O)Nc2ccc(C(N)=O)cc2)c1 | 0.4% | -12% | 7% | 3
CCOC(=O)c1ccc(Nc2cc(C)nc(-c3ccccc3)n2)cc1 | 0.0% | -9% | 19% | x
CC1CN(S(=O)(=O)c2ccccc2)CN1C(=O)N1CCOCC1 (stereo unspecified) | 1.2% | 22% | 0% | x
CCN(CC)CCOC(=O)c1c(C)n(C)c2ccc(OC)cc12 | -2.6% | 1% | -8% | -4
CC(C)CCNCC1OCc2ccccc2CO1 | -2.6% | -2% | -4% | -4
COc1ccc(C)cc1NS(=O)(=O)c1ccc(NS(=O)(=O)c2ccc(NC(C)=O)cc2)cc1 | 0.0% | -11% | 5% | 0
CCOc1ccccc1-c1cc(C(=O)N2CCOCC2)c2ccccc2n1 | -0.6% | 0% | -2% | x
N#CCC(=O)N1CCN(Cc2ccc3c(c2)OCO3)CC1 | -0.5% | -7% | x | x
Cn1c(=O)c2c(nc(Br)n2Cc2ccc3ccccc3c2)n(C)c1=O | 0.0% | -2% | 10% | -8
O=C(CN1CCN(C(=O)C2CC2)CC1)Nc1cc(C(F)(F)F)cc(C(F)(F)F)c1 | -3.7% | -2% | x | x
NC(=O)[C@@H]1CCCCNc2c(F)cc([N+](=O)[O-])cc2C(=O)N[C@@H](CC(=O)O)C(=O)NCC(=O)N1 | 5.8% | -8% | -2% | -5
CCN(CC)C(=O)C1=C(C)NC(=S)NC1c1cn(-c2ccccc2)nc1-c1ccc(Cl)cc1 (stereo unspecified) | 1.7% | -12% | 0% | 2
COc1ccc(C2C3C=CCC(c4cccc(-c5ccc(C)cc5)c4)C3C(=O)N2Cc2ccccc2)cc1Cl (stereo unspecified) | -0.1% | -4% | 21% | 3
Cn1c(=O)[nH]c(=O)c2c1nc(SCCCO)n2CCCc1ccccc1 | 1.0% | 1% | -19% | x
Cc1cccc(N2C(=O)N3[C@H](c4ccc(Br)cc4)[C@@H]4C(=O)N(C(C)(C)C)C(=O)[C@@H]4[C@]3(C)C2=O)c1 | 0.3% | 18% | 1% | x
CCn1c2ccccc2c2cc(NC(=O)c3ccc(Br)o3)ccc21 | u | u | -2% | 2
CCn1nc(C)c(C(=O)Nc2cc(Oc3cc(C)cc(C)c3)cc([N+](=O)[O-])c2)c1C | -0.2% | 2% | 18% | -22
CS(=O)(=O)N1N=C(c2cccs2)CC1c1ccc(Cl)o1 (stereo unspecified) | -2.4% | -4% | -39% | 0
CCn1cc([N+](=O)[O-])c(C(=O)N2CCOCC2)n1 | 0.5% | -1% | -6% | -4
Cc1nc2cc(Cl)ccc2c(=O)n1Cc1ccncc1 | 0.4% | 18% | -7% | x
C=CCn1c(SCC(=O)Nc2cc3oc4ccccc4c3cc2OC)nnc1-c1cnccn1 | 5.6% | 0% | 1% | -4
Nc1ccc(S(=O)(=O)c2ccc(NC(=O)c3cccnc3)cc2)cc1 | -2.3% | -12% | x | x
COc1ccc(Cl)cc1NC(=O)CN1CCN(S(=O)(=O)N2CCC(C)CC2)CC1 | 6.8% | 7% | 0% | x
COc1ccc(N2C(=O)C3CC=C(Cl)CC3C2=O)cc1 (stereo unspecified) | -2.6% | -20% | -1% | -2
CCOC(=O)c1cc(NCc2cccs2)ccc1N1CCOCC1 | u | -18% | -2% | 3
Cc1ccccc1NC(=O)CN1C(=O)S/C(=C\c2ccc(-c3cccc(C(=O)O)c3C)o2)C1=O | u | u | -5% | 5
CCc1ccc(N(C(=O)c2csnn2)C(C(=O)NC2CCCCC2)c2ccncc2)cc1 (stereo unspecified) | -2.3% | -1% | -17% | x
CCN(CC)C(=O)Cn1cnc2sc(C(=O)NCCCN3CCOCC3)c(C)c2c1=O | 0.5% | 6% | 1% | x
CC1(C)CC(=O)C(C=NCCN2CCN(C(=S)Nc3ccccc3)CC2)=C(O)C1 | -1.4% | -5% | -1% | 11
CCOC(=O)c1ccc(S(=O)(=O)N2CCC(C(=O)OCC)CC2)cc1 | -1.7% | -5% | 1% | 6
Cc1cc(C)c(C#N)c(N2CCOCC2)n1 | -1.8% | -13% | -9% | 1
O=S(=O)(c1ccc(S(=O)(=O)N2CCN(Cc3ccccc3)CC2)cc1)N1CCOCC1 | x | x | -4% | -18
COc1ccccc1-c1ccc(=O)n(CC(=O)NCc2ccco2)n1 | -0.2% | 1% | -10% | -3
O=S(=O)(c1cccs1)N1CCCc2cccc(O)c21 | -2.0% | 3% | -45% | -15
CCN(CC)C(=O)c1cc(-c2ccccc2OC)on1 | -4.5% | 15% | -62% | -10
O=C1NCC(COc2ccc(Cl)cc2)O1 (stereo unspecified) | 0.4% | 5% | -8% | -4
CSCCC(NC(=O)C1CCCC1)c1nnc2ccccn12 (stereo unspecified) | -0.4% | 21% | -1% | x
C=CCC1(O)C(=O)N2C(=C1C(=O)OCC)c1ccc3ccccc3c1CC2(C)C (stereo unspecified) | -0.5% | -9% | 4% | -15
O=C(O)c1ccccc1NC(c1ccccc1)c1ccc2cccnc2c1O (stereo unspecified) | 1.7% | -6% | x | x
CCOCCCNC(=O)CN1CCN(c2ccc(F)cc2)CC1 | 5.8% | 15% | 0% | 5
CCOC(=O)N1CCN(Cc2nc(-c3ccc(C)cc3)no2)CC1 | 1.1% | 6% | 1% | -9

As entered above.
Rango complex inh, CCOc1ccccc1NC(=S)N1CCN(c2ccc(OC)cc2)CC1 reads 2.6%
miR-21 FLuc, CCn1nc(C)c(C(=O)Nc2cc(Oc3cc(C)cc(C)c3)cc([N+](=O)[O-])c2)c1C reads 18%
GLA inh pH 4.5, CCCc1nc2c(C)ccc(C)c2c(N)c1CC reads 0
GLA inh pH 4.5, CCOC(=O)c1cc(NCc2cccs2)ccc1N1CCOCC1 reads 3

Continued.
SMILES | Rango complex inh | Rango dissoc inh | miR-21 FLuc | GLA inh pH 4.5
COc1ccc(CCNC(=O)CCN2C(=O)c3ccccc3C2=O)cc1OC | x | x | -2% | 5
CCOc1ccc2nc(SCC(=O)N3c4ccccc4Sc4ccccc43)sc2c1 | -0.1% | -4% | 0% | 3
COc1c(Cl)cc(Cl)cc1C(=O)Nc1ccc(NC(=O)c2cccs2)cc1 | -1.7% | -1% | 11% | -3
Cc1cccc(N=NC(=S)NNc2cccc(C)c2)c1 | 0.1% | -3% | x | x
N#Cc1ccccc1NC(=O)COC(=O)c1ccc(S(=O)(=O)N2CCCC2)cc1 | -0.1% | 5% | -4% | -5
O=C(CN1CCN(c2ccccc2F)CC1)N1N=CCC1c1ccccc1 (stereo unspecified) | -3.9% | 7% | -8% | -6
O=C(CCc1nnc2ccc(N3CCCCC3)nn12)NCC1CCN(Cc2ccc(F)cc2)CC1 | 4.2% | -2% | 0% | x
Cc1ccc(S(=O)(=O)N(CC(=O)NCc2ccncc2)Cc2ccc(F)cc2)cc1 | 0.2% | 2% | 2% | x
Cc1ccc(NC(=O)CN(C)C(=O)CCC(=O)N2CCOCC2)cc1 | 2.7% | -8% | x | x
CSCCC(NS(=O)(=O)c1ccccc1F)C(=O)OCc1ccccc1Cl (stereo unspecified) | -1.1% | 25% | 6% | -1
COc1cc(/C=N/Nc2cccc(C)c2)cc(Br)c1O | -1.3% | 3% | -18% | 1
CCN(CC)CCNC1=CC(=O)OC12CCCCC2 | -2.4% | 8% | 1% | -9
COc1cccc(CNC(=O)C2CCC(CNS(=O)(=O)c3cccc4cccnc34)CC2)c1 (stereo unspecified) | 1.0% | 5% | -3% | x
CCOC(=O)Cn1c(-c2ccccc2)ccc(C#N)c1=O | -0.1% | 1% | -3% | -3
O=C(CN1C(=O)NC2(CCCCCC2)C1=O)NC1CCCCCCC1 | -1.7% | -15% | -2% | -6
Cc1nn(-c2ccccc2)c(C)c1/C=N/NC(=O)CSc1nc2ccccc2c(=O)n1-c1ccc(Br)cc1 | u | 1% | -7% | -4
O=C(c1ccc(C(F)(F)F)cc1)C1CCCN(C(=O)CN2C(=O)CSC2=O)C1 (stereo unspecified) | -3.0% | -5% | -33% | -13
Cc1cc(C)cc(C(=O)Nc2cccc(NC(=O)c3ccco3)c2)c1 | 0.6% | 0% | 4% | x
CSc1ccc2c(c1)C(N1CCN(C)CC1)Cc1ccccc1S2 (stereo unspecified) | 2.6%&-1.2% | -6%&-15% | u | -5&-4&-19
CC(=O)N1CCc2ccc(NC(=O)c3c(-c4c(Cl)cccc4Cl)noc3C)cc21 | 0.0% | -1% | 8% | -7
O=C(CO/N=C/c1ccc(OC(F)F)cc1)N1CCc2ccccc21 | 5.9% | 3% | 4% | 4
